Assay outcomes as filed in PubChem BioAssay.
2A Renilla – lowers the Renilla signal of an FMDV 2A StopGo reporter. HEK cells with a luciferase reporter of 2A StopGo recoding. Potency, µM (titrated, usually from 57.5 µM), without a hit: top-dose signal change, negative = less light. hit rate 0.32% among 120,000. AID 1745857; active means well fitted falling curve with a large enough effect; inconclusive means small, poorly fitted or top-dose-only effect; inactive means no such curve, though single readings can be large or run the other way; further: nearly all actives have a fitted effect of over 55% in size; overnight with compound
2A firefly – lowers the firefly signal of an FMDV 2A StopGo reporter. HEK cells with a luciferase reporter of 2A StopGo recoding. Potency, µM (top dose mostly 57.5 µM), for inactives: at the top dose signal change, negative = less light. hit rate 0.23% among 120,000. AID 1745856; active = well fitted falling curve with a large enough effect; inconclusive = small, poorly fitted or top-dose-only effect; inactive = no such curve, though single readings can be large or run the other way; further: nearly all actives have a fitted effect of over 60% in size; overnight with compound
* marks the source's active call; other numbers are inactive results; u = inconclusive; [ ] = another dose, or the depositor's remark. On the % scale 0 is the no-effect control and ±100 the full control effect; potency means the concentration at half of the fitted maximal effect.

(1) CN1CCN(C(=O)c2cc3cc(Cl)ccc3[nH]2)CC1
(2) COc1cccc(NC(=O)Cn2c(=O)n(Cc3ccccc3)c(=O)c3c2c2cc(C)ccc2n3C)c1
(3) O=C(O)CCc1ccc(S(=O)(=O)NCCN2CCCC2)cc1
(4) Brc1ccc2[nH]cc(/C=N/n3cnnc3)c2c1
(5) CCN(Cc1ccccc1)C(=O)c1nn(CC)c(=O)c2ccccc12

Assay by compound	1	2	3	4	5
2A Renilla	-10%	-15%	12%	-5%	55%[activator]
2A firefly	35%[activator]	-16%	8%	0%	8%

(6) CCOc1ccc(C(=O)COC(=O)CCC(=O)c2ccc(Cl)cc2)cc1
(7) CC(C)CNC(=O)C(=O)O
(8) CCOC(=O)c1c(NC(=O)c2nc(SCC)ncc2Cl)sc(C(C)=O)c1C
(9) Cc1nc(-c2cccs2)c(CCC(=O)N2CCN(c3ccccc3)CC2)s1
(10) COC(=O)c1oc(CN2CC(C)OC(C)C2)cc1C (stereo not given)

Assay by compound	6	7	8	9	10
2A Renilla	-1%	2%	1%	-6%	2%
2A firefly	-2%	0%	15%	1%	17%

(11) Cc1ccc(NC(=O)Cn2c(C)cc(C)c(C#N)c2=O)cc1
(12) N#Cc1ccc(NC(=O)CSc2nnc(Cc3ccccc3)o2)cc1Cl
(13) COc1ccc(S(=O)(=O)Nc2ccc(Nc3cc(N4CCCC4)nc(C)n3)cc2)cc1C
(14) CC(=O)O[C@@H]1C(=O)O[C@@H]2[C@H]1OC(=O)[C@@H]2OC(C)=O
(15) Cc1ccc(Cl)cc1Nc1nn2c(=O)c3ccc(C(=O)NCc4cccs4)cc3nc2s1

Assay by compound	11	12	13	14	15
2A Renilla	0%	6%	-55%	-7%	-8%
2A firefly	-10%	20%	u	0%[11.5 µM]	2%

(16) COc1ccc(C)cc1NC(=O)c1cc2c(=O)n3ccccc3nc2n1C
(17) CCOC(=O)CC1(NC(=O)N2CCCC2c2cccs2)CCCCC1 (stereo not given)
(18) O=C1CC(C(=O)NOCc2ccccc2)c2ccccc2N1 (stereo not given)
(19) Cc1cccn2cc(CSc3nnc4c(Cl)cc(C(F)(F)F)cn34)nc12
(20) CN(Cc1ccc(Cl)cc1)C(=O)Cn1nnn(-c2cccs2)c1=O

Assay by compound	16	17	18	19	20
2A Renilla	-3%	-4%	10%	0%	0%
2A firefly	-1%	-11%	-4%	0%	29%

(21) CCC1=Nc2ccccc2N=C(NC(=O)c2ccc(OC)cc2)C1c1ccc(OC)c(OC)c1 (stereo not given)
(22) CCOc1ccc(S(=O)(=O)N2CCN(Cc3ncc(-c4ccc(F)cc4)o3)CC2)cc1
(23) O=C(Nc1c(NCc2ccccc2)c2ccccc2oc1=O)c1ccccc1
(24) Cc1nc2cc(NS(=O)(=O)c3cc(Cl)ccc3Cl)ccc2o1
(25) CN(C)c1ccc(CNC(=O)c2ccc3nc(Cc4ccccc4)oc3c2)cc1

Assay by compound	21	22	23	24	25
2A Renilla	137%[activator]	u	5%	294%[activator]	12%
2A firefly	47%[activator]	u	24%	4%	60%[activator]

(26) N#Cc1ccc(COc2ccccc2-c2ccccc2)cc1
(27) CCCNC(=O)N1[C@H](c2ccc(C)s2)[C@@H](C)C(=O)[C@@H](C)[C@@H]1c1ccc(C)s1
(28) COc1cc(OC)cc(C(=O)Nc2ccc3nc(N4CCCC4)sc3c2)c1
(29) Cc1cc(C)cc(COC(=O)c2cnc(C)cn2)c1
(30) O=C(Cn1ncc2c3ccccc3n(Cc3cccc(Cl)c3)c2c1=O)NCCCc1ccccc1

Assay by compound	26	27	28	29	30
2A Renilla	0%	1%	28%	-2%	-10%
2A firefly	0%	-2%	207%[activator]	-8%	3%

One compound at a time, from the list above. Screens in order: 2A Renilla | 2A firefly
Shown for COc1cc(OC)cc(C(=O)Nc2ccc3nc(N4CCCC4)sc3c2)c1 = 28% | 207%[activator]
Shown for O=C(O)CCc1ccc(S(=O)(=O)NCCN2CCCC2)cc1 = 12% | 8%
Shown for Cc1ccc(Cl)cc1Nc1nn2c(=O)c3ccc(C(=O)NCc4cccs4)cc3nc2s1 = -8% | 2%
Shown for CCC1=Nc2ccccc2N=C(NC(=O)c2ccc(OC)cc2)C1c1ccc(OC)c(OC)c1 (stereo not given) = 137%[activator] | 47%[activator]
Shown for COc1cccc(NC(=O)Cn2c(=O)n(Cc3ccccc3)c(=O)c3c2c2cc(C)ccc2n3C)c1 = -15% | -16%

(continued)
(31) COc1ccc2oc(-c3cccc(NC(=O)c4sc5c([N+](=O)[O-])cccc5c4Cl)c3)nc2c1
(32) CCN(CC)CCNC(=O)c1ccc2c(=O)n3nc(Nc4ccccc4OC)sc3nc2c1
(33) O=C(COC(=O)CSc1ccccc1)NC1CCS(=O)(=O)C1 (stereo not given)
(34) O=C(CSc1cccc2cccc(Cl)c12)NCc1cccs1
(35) C/C=C/c1ccc(OCC(=O)N2CCN(S(=O)(=O)c3ccc(F)cc3)CC2)c(OC)c1

Assay by compound	31	32	33	34	35
2A Renilla	-5%	-14%	9%	107%[activator]	-3%
2A firefly	15%	-9%	19%	28%	7%

(36) O=C(Nc1ccc(-c2nc3ccccc3o2)cc1)c1ccc(F)cc1
(37) Cc1ccc(NC(=O)C2=C(c3ccccc3)NC(=S)NC2c2ccccc2)cc1 (stereo not given)
(38) COCCNC(=O)COC(=O)c1cc(-c2ccc(Cl)s2)nc2ccccc12
(39) O=C(COC(=O)c1cc(-c2cccs2)nc2ccccc12)c1ccc(Cl)cc1
(40) CN(C)C(=O)c1c(F)cccc1F

Assay by compound	36	37	38	39	40
2A Renilla	5%	20%	22%	-12%	-1%
2A firefly	122%[activator]	0%	60%[activator]	1%	-10%

(41) CCOC(=O)c1sc(Nc2ccc(C(C)=O)cc2)nc1C(F)(F)F
(42) Cc1ccc(CNC(=O)C(=O)Nc2c3c(nn2-c2ccc(F)cc2)CSC3)cc1
(43) CSc1ccc(/C=N/Nc2ccc(F)cc2F)cc1
(44) COc1ccc(-c2cc(=O)c3cc(OC(C)=O)ccc3o2)cc1
(45) Cc1ccc2c(c1)C(C)(C)C1(/C=C/c3ccccc3F)NC(=O)CCN21 (stereo not given)

Assay by compound	41	42	43	44	45
2A Renilla	0%	-3%	9%	73%[activator]	11%
2A firefly	161%[activator]	-8%	263%[activator]	208%[activator]	21%

(46) CCOc1cc(S(=O)(=O)NCCO)ccc1Br
(47) CCC(CC)C(=O)Nc1cc(-c2cn3cccnc3n2)ccc1OC
(48) CC(=O)N1CCC(N(Cc2ccc(C)o2)C(=O)Nc2ccccc2F)CC1
(49) Cc1c(C)c2c(cc(C)c3c(-c4ccc(Br)cc4)coc32)oc1=O
(50) COC(=O)c1ccc(C(=O)OC(C)C(=O)C23CC4CC(CC(C4)C2)C3)cc1 (stereo not given)

Assay by compound	46	47	48	49	50
2A Renilla	9%	-17%	15%	54%[activator]	-21%
2A firefly	12%	-22%	-2%	-13%	-5%

(51) CCC[N+]1(CC#CCC(c2ccccc2)c2ccccc2)CCCCC1
(52) Cc1cc(=O)oc2cc(OCc3nc(C(C)(C)C)no3)ccc12
(53) O=C(Nc1nc(-c2ccccc2Cl)cs1)c1cccc(N2CCCC2=O)c1
(54) Cn1c(=O)c2c(ncn2CCC(=O)NCC2CCCCC2)n(C)c1=O
(55) CCOC(=O)c1c(NC(=O)c2nc(SC(C)C)ncc2Cl)sc2c1CCCC2

Assay by compound	51	52	53	54	55
2A Renilla	4µM*	-2%	u	-2%	-3%
2A firefly	u	0%	u	0%	-14%

(56) CCc1ccc(-n2nc(CO)c(C(=O)NCc3ccc4c(c3)OCO4)n2)cc1
(57) CCN(CC)C(=O)Cn1c(SCC(=O)Nc2ccc(F)cc2)nc2ccccc21
(58) COCCN(Cc1cc2ccccc2[nH]c1=O)C(=O)c1cc(OC)cc(OC)c1
(59) CN(C)/C=C/C(=O)c1ccccn1
(60) O=C(N/N=C/C=C/c1ccccc1[N+](=O)[O-])c1ccccc1NS(=O)(=O)c1cccs1

Assay by compound	56	57	58	59	60
2A Renilla	-11%	-4%	20%	0%	48%[activator]
2A firefly	1%	-11%	24%	14%	0%

(61) CN(C)CCNCC1CCCCC1
(62) COc1ccc(-c2onc(C)c2-c2ccc(OC)c(OC)c2)c(O)c1
(63) CC(C)C(C)NC(=O)c1ccc(Cl)cc1 (stereo not given)
(64) Cc1cc(C)cc(NC(=O)CCS(=O)(=O)c2cc3c4c(c2)CCN4C(=O)CC3)c1
(65) CCN(CC)c1ccc(NC(=O)c2cc3cc(F)ccc3[nH]2)cc1

Assay by compound	61	62	63	64	65
2A Renilla	10%	20%	0%	1%	-1%
2A firefly	5%	0%	7%	-18%	43%[activator]

(66) COc1cc(OC)cc(C(=O)Nc2cccc(CCc3nc4ccc(C)cc4[nH]3)c2)c1
(67) O=C1Nc2cc(Cl)c(Cl)cc2N(O)N1c1cc(Cl)cc(Cl)c1
(68) N#Cc1nc(COc2ccc(F)cc2)oc1N1CCCCC1
(69) COc1ccccc1C1CC(=O)N(c2cccc(C(F)(F)F)c2)C2=C1C(=O)OC2 (stereo not given)
(70) CCS(=O)(=O)N1CCc2cc(C(=O)Nc3ccc(C(=O)OC)cc3)ccc21

Assay by compound	66	67	68	69	70
2A Renilla	u	-15%	3%	23%	9%
2A firefly	26%	-10%	83%[activator]	50%[activator]	21%

(71) Cc1[nH]c2ccccc2c1C(=O)C(C)Sc1nnc(CCC(N)=O)n1C1CC1 (stereo not given)
(72) Cc1cnc2c(S(=O)(=O)NC3CCCCC3)cccc2c1
(73) Cc1c(C)n(-c2cccc(Cl)c2)c2ncnc(Cl)c12
(74) Cc1ccsc1/C=C(/C#N)C(=O)NC1CCCCC1C (stereo not given)
(75) COc1ccc(NC(=O)c2nc3ccccc3nc2N2CCOCC2)cc1Cl

Assay by compound	71	72	73	74	75
2A Renilla	-1%	130%[activator]	-1%	52%[activator]	13%
2A firefly	-3%	7%	-7%	175%[activator]	16%

(76) CCOc1ccccc1NC(=O)Cn1c(=O)n(Cc2ccccc2)c(=O)c2cccnc21
(77) Cc1ccc2c(c1)c(=O)c(C(=O)c1ccccc1)cn2Cc1ccccc1F
(78) COc1ccccc1CNC(=O)c1cc(-c2ccccc2)n[nH]1
(79) CCNCC1Cc2ccccc2O1 (stereo not given)
(80) Cc1ccc(-n2nnnc2C2(NC(C)C)CCCCC2)cc1

Assay by compound	76	77	78	79	80
2A Renilla	-20%	35%[activator]	0%	15%	54%[activator]
2A firefly	0%	-15%	66%[activator]	0%	-2%

(81) CC(=O)Nc1ccc(NC(=O)Cn2ccc3cc(Cl)ccc32)cc1
(82) COc1ccc(/C=C(/C#N)C(=O)C(C)C)cc1O
(83) CCOC(=O)c1cc(-c2ccccc2)n(CC(=O)Nc2cc(Cl)c(OC)cc2OC)c1C
(84) O=c1c(S(=O)(=O)c2cccc(Cl)c2)cn(Cc2ccccc2)c2cc(N3CCOCC3)c(F)cc12
(85) O=C(NCCNCCO)c1nc2ccccc2c(=O)[nH]1

Assay by compound	81	82	83	84	85
2A Renilla	25%	10%	-2%	10%	2%
2A firefly	15%	10%	-19%	-3%	0%

(86) COc1ccc(CNC(=O)c2c3c(nc4ccccc24)C(=O)N(C2CCCCC2)C3)cc1
(87) O=C(Nc1nc2nc(-c3ccccc3)cc(=O)n2[nH]1)c1ccc(Cl)cc1
(88) C=CCNC(=O)/C=C/c1cccc(OC)c1
(89) CC(NS(=O)(=O)c1cc(F)ccc1F)C(=O)N1CCCC1 (stereo not given)
(90) OCc1cccc(N=Cc2ccc(Cl)cc2Cl)c1

Assay by compound	86	87	88	89	90
2A Renilla	-12%	u	22%	7%	-2%
2A firefly	-26%	-23%	209%[activator]	-1%	2%

Continued (4 carried over from the part before).
(87) O=C(Nc1nc2nc(-c3ccccc3)cc(=O)n2[nH]1)c1ccc(Cl)cc1
(88) C=CCNC(=O)/C=C/c1cccc(OC)c1
(89) CC(NS(=O)(=O)c1cc(F)ccc1F)C(=O)N1CCCC1 (stereo not given)
(90) OCc1cccc(N=Cc2ccc(Cl)cc2Cl)c1
(91) CC(=O)OC1=C(C(C)=O)N(Cc2ccccc2)S(=O)(=O)c2ccccc21
(92) CCc1ccc(CN(Cc2ccco2)c2cnc(S(C)(=O)=O)nc2C(=O)Nc2ccc(C)c(Cl)c2)cc1
(93) O=C1/C(=C\c2cccs2)N2CCC1CC2
(94) CC(NC(=O)CCCNC(=O)C1CC1)c1ccc(C#N)cc1 (stereo not given)
(95) Cc1cc(OCC(=O)N(Cc2ccc(N(C)C)cc2)CC2CCCO2)ccc1Cl (stereo not given)
(96) CCOc1cc(C(Nc2cc(C)ccn2)c2ccc3cccnc3c2O)ccc1OC (stereo not given)
(97) O=C(Nc1ccccc1Br)c1nc2ccccc2nc1N1CCOCC1

Assay by compound	87	88	89	90	91	92	93	94	95	96	97
2A Renilla	u	22%	7%	-2%	21%	-3%	20%	4%	32%[activator]	-10%	-6%
2A firefly	-23%	209%[activator]	-1%	2%	17%	-9%	34%[activator]	11%	-11%	-29%	-2%

Two of these compounds, set out differently:
Under each structure: 2A Renilla | 2A firefly
#63 CC(C)C(C)NC(=O)c1ccc(Cl)cc1 (stereo not given)
→ 0% | 7%
#74 Cc1ccsc1/C=C(/C#N)C(=O)NC1CCCCC1C (stereo not given)
→ 52%[activator] | 175%[activator]
